From PubChem
Vaccinia stage: Vaccinia orthopox stage-specific inhibition. Vaccinia-infected cells, mCherry/Venus stage reporter fluorescence; stronger effect = lower value; some inactives read as strong as hits. activity change (mCherry), % (concentration not given with the values). 89,000 tested, 0.01% active. AID 1053133;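 active = mCherry past -33% and 40 or more points under the early reporter, replicates agreeing; inconclusive = past -33% without that gap or agreement; tested in A549 cells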;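 note: scaled between vehicle wells and reference inhibitor wells; 23 nL library stock went into each well; one replicate is shown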
Vaccinia stage Venus: also measured in Vaccinia stage; calls as there; activity change (Venus), %; measured here: Venus reporter, other viral stage;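 negative = less Venus signal; first of two replicates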
Starred values were filed as active, the others as inactive; ? = inconclusive; nt = no result given.

SMILES | Vaccinia stage | Vaccinia stage Venus
COc1ccc(NC(=O)N[C@H]2CC[C@H](CCNC(=O)c3cc(Cl)cc(Cl)c3)O[C@H]2CO)cc1 | 1.2 | 3.3
O=C(NC1CCCC1)N1CCCCN2[C@H](CO)[C@@H](c3ccc(-c4cccnc4)cc3)[C@@H]2C1 | 3.8 | 6.1
CC(C)NC(=O)N(C)C[C@H]1Oc2ncc(C#CCc3ccccc3)cc2C(=O)N([C@@H](C)CO)C[C@H]1C | 7.0 | 11.4
CCCN(C)C[C@H]1Oc2cc(C#Cc3ccccc3F)ccc2S(=O)(=O)N([C@H](C)CO)C[C@H]1C | -28.1 | -12.9
C[C@H](CO)N1C[C@H](C)[C@@H](CN(C)Cc2ccc(C(=O)O)cc2)Oc2ccc(NS(C)(=O)=O)cc2C1=O | 2.1 | 0.3
CCCC#Cc1ccc2c(c1)O[C@H](CN(C)C(=O)Nc1ccc(OC)cc1)[C@H](C)CN([C@H](C)CO)S2(=O)=O | -26.6 | -13.2
CCCN1C[C@H](C)[C@H](OC)CN(C)C(=O)c2cc(NC(=O)CC(F)(F)F)ccc2OC[C@@H]1C | -3.7 | -3.7
O=C(O)C[C@H]1CC[C@H](NC(=O)Nc2cc(F)ccc2F)[C@H](CO)O1 | -4.3 | -6.7
C[C@H](CO)N1C[C@H](C)[C@H](CN(C)Cc2ccncc2)Oc2ncc(-c3cccc(C#N)c3)cc2C1=O | 14.9 | 13.1
C[C@H]1CN([C@@H](C)CO)S(=O)(=O)c2ccc(C#Cc3ccc(F)cc3)cc2O[C@H]1CN(C)C | ? | nt
CC(C)C#Cc1cnc2c(c1)C(=O)N([C@H](C)CO)C[C@H](C)[C@H](CN(C)Cc1cccc(F)c1)O2 | -12.4 | -0.6
CCCN1C[C@H](C)[C@@H](OC)CN(C)C(=O)c2ccc(NC(=O)Nc3ccccc3F)cc2OC[C@H]1C | -14.6 | -14.2
C[C@H](CO)N1C[C@H](C)[C@H](CN(C)C(=O)c2cccc(F)c2)Oc2ncc(C#CCN(C)C)cc2C1=O | 15.3 | 9.2
O=C(C1CCCCC1)N1CC2(C1)[C@H](c1ccccc1)[C@H](CO)N2C(=O)c1cccnc1 | 8.3 | 8.2
COc1ccccc1C(=O)Nc1ccc2c(c1)C(=O)N(C)[C@@H]1CC[C@@H](CC(=O)NCc3ccc(Cl)c(Cl)c3)O[C@@H]1CO2 | ? | nt
O=C(C[C@H]1C=C[C@H](NC(=O)NC2CCCC2)[C@@H](CO)O1)NCc1ccc(F)cc1 | 1.1 | 1.1
O=C(C[C@H]1CC[C@@H](NC(=O)NC2CCCC2)[C@@H](CO)O1)NCc1ccc(F)cc1 | 4.6 | 6.5
COCC(=O)Nc1ccc2c(c1)OC[C@H](C)N(Cc1ccccc1)C[C@H](C)[C@@H](OC)CN(C)C2=O | -13.9 | -17.5
O=C(C[C@@H]1C=C[C@H](NC(=O)C2CCC2)[C@@H](CO)O1)NC1CCC1 | 5.8 | 9.2
O=C(C[C@@H]1CC[C@@H]2[C@H](COC[C@H](O)CN2C(=O)Nc2ccc(Cl)c(Cl)c2)O1)NCc1ccc(F)cc1 | ? | nt
C[C@H](CO)N1C[C@H](C)[C@@H](CN(C)Cc2ccccc2)Oc2c(NC(=O)C3CCOCC3)cccc2C1=O | -0.8 | 2.9
CN(C)C(=O)c1ccc(-c2ccc([C@@H]3[C@H](CO)N4C(=O)CN(C(=O)C5CCCC5)C[C@@H]34)cc2)cc1 | -1.5 | 2.8
CCCC#Cc1ccc([C@@H]2[C@@H](CO)N3CCCCN(S(=O)(=O)c4ccccc4C)C[C@@H]23)cc1 | -27.5 | -23.6
C[C@H](CO)N1C[C@H](C)[C@@H](CN(C)Cc2ccc(Cl)c(Cl)c2)Oc2ccc(NS(=O)(=O)c3cccs3)cc2C1=O | -17.3 | -14.6
O=C1CN(S(=O)(=O)Cc2ccccc2)C[C@@H]2[C@@H](c3ccc(C#CC4CC4)cc3)[C@H](CO)N12 | -27.7 | -19.2
SMILES | Vaccinia stage | Vaccinia stage Venus
COc1ccc(S(=O)(=O)Nc2ccc3c(c2)C(=O)N([C@@H](C)CO)C[C@H](C)[C@@H](CN(C)CC2CCCCC2)O3)cc1 | 1.1 | -1.4
COc1ccc(S(=O)(=O)N2C[C@H](O)COC[C@H]3O[C@H](CC(=O)N[C@@H]4CCN(Cc5ccccc5)C4)CC[C@@H]32)cc1 | -14.1 | -9.1
C[C@@H](NC(=O)C[C@@H]1CC[C@H]2[C@@H](COC[C@H](O)CN2Cc2cc(F)ccc2F)O1)c1ccccc1 | -1.1 | 2.2
CO[C@H]1CN(C)C(=O)c2ccc(NC(C)=O)cc2OC[C@@H](C)N(Cc2cncnc2)C[C@H]1C | 12.6 | 8.2
O=C(CCN1CCCCC1)NCC[C@@H]1CC[C@@H](NC(=O)C2CCOCC2)[C@H](CO)O1 | 1.4 | -0.2
C[C@@H]1CN([C@@H](C)CO)C(=O)c2cc(NC(=O)NC3CCCCC3)ccc2O[C@H]1CN(C)Cc1ccc(C(=O)Nc2ccccc2N)cc1 | 13.3 | 14.0
CC(=O)N1CCCCN2[C@H](C1)[C@@H](c1ccc(Br)cc1)[C@@H]2CO | 29.4 | 11.8
C[C@H](CO)N1C[C@H](C)[C@H](CN(C)Cc2ccc(C(=O)Nc3ccccc3N)cc2)Oc2ccc(NS(=O)(=O)c3cn(C)cn3)cc2C1=O | 42.5 | 20.2
C[C@@H]1CN([C@@H](C)CO)C(=O)c2cccc(NC(=O)C3CCCCC3)c2O[C@H]1CN(C)Cc1ccc(C(=O)O)cc1 | -2.6 | 8.3
CN1C(=O)c2cc(NC(=O)C3CCCCC3)ccc2OC[C@H]2O[C@@H](CC(=O)NCCc3ccncc3)CC[C@H]21 | 8.0 | 5.7
CCCNC(=O)[C@@H]1[C@@H](CO)[C@@H]2Cn3c(cccc3=O)[C@H]1N2CCC | 11.2 | 5.7
C[C@@H]1CN([C@@H](C)CO)C(=O)c2cccc(NC(=O)Nc3ccc4c(c3)OCO4)c2O[C@@H]1CN(C)Cc1ccc(Oc2ccccc2)cc1 | -30.9 | -24.2
O=C1CN(S(=O)(=O)Cc2ccccc2)C[C@@H]2[C@H](c3ccc(C#CCC4CCCC4)cc3)[C@H](CO)N12 | -25.1 | -30.5
O=C(C[C@H]1C=C[C@H](NC(=O)c2ccncc2)[C@H](CO)O1)NCc1ccncn1 | 9.2 | 3.8
C[C@@H]1CN([C@@H](C)CO)S(=O)(=O)c2ccc(-c3cccc(F)c3)cc2O[C@H]1CN(C)S(C)(=O)=O | -17.0 | -19.7
C[C@@H]1CN([C@@H](C)CO)C(=O)Cc2cc(NC(=O)Nc3ccccc3)ccc2O[C@H]1CN(C)Cc1ccc(C(=O)O)cc1 | 11.6 | 5.5
CCS(=O)(=O)Nc1ccc2c(c1)C(=O)N(C)C[C@@H](OC)[C@H](C)CN(C(=O)NC(C)C)[C@@H](C)CO2 | 14.2 | 6.3
CS(=O)(=O)N1Cc2cc(C(=O)O)nc(-c3cccc(-c4ccccc4F)c3)c2[C@H]1CCO | 10.6 | 5.8
CN(C)C(=O)C[C@H]1C=C[C@H](NC(=O)c2ccc(F)cc2)[C@@H](CO)O1 | 10.1 | 6.6
COc1ccc(-c2cnc3c(c2)C(=O)N([C@@H](C)CO)C[C@H](C)[C@H](CN(C)C(=O)CN(C)C)O3)cc1 | 23.5 | 11.6
C[C@H](O)C#Cc1ccc2c(c1)O[C@H](CN(C)Cc1cncnc1)[C@@H](C)CN([C@H](C)CO)S2(=O)=O | -0.7 | -4.3
O=C(NC1CCCC1)N1CC(=O)N2[C@H](CO)[C@@H](c3ccc(-c4cccnc4)cc3)[C@H]2C1 | 7.8 | -0.3
C[C@@H]1CN([C@@H](C)CO)C(=O)c2cc(NC(=O)C3CC3)ccc2O[C@@H]1CN(C)C | 2.0 | -3.1
C[C@H]1CN([C@@H](C)CO)C(=O)Cc2cc(NC(=O)Cn3cnnn3)ccc2O[C@@H]1CN(C)C(=O)Nc1ccc2c(c1)OCO2 | 11.0 | 13.9
CC(C)C#Cc1ccc([C@H]2[C@@H](C#N)N(C(=O)c3cccc(F)c3)[C@@H]2CO)cc1 | -28.2 | -24.5

Next section (two carried over from the part before).
SMILES | Vaccinia stage | Vaccinia stage Venus
C[C@H]1CN([C@@H](C)CO)C(=O)Cc2cc(NC(=O)Cn3cnnn3)ccc2O[C@@H]1CN(C)C(=O)Nc1ccc2c(c1)OCO2 | 11.0 | 13.9
CC(C)C#Cc1ccc([C@H]2[C@@H](C#N)N(C(=O)c3cccc(F)c3)[C@@H]2CO)cc1 | -28.2 | -24.5
O=C(C[C@@H]1CC[C@@H]2[C@H](COC[C@H](O)CN2Cc2ccc(Oc3ccccc3)cc2)O1)N1CCN(c2ccccc2)CC1 | ? | nt
COc1ccc(CNC(=O)N(C)C[C@H]2OCc3ccccc3-c3ccccc3C(=O)N([C@H](C)CO)C[C@@H]2C)cc1 | 11.6 | 19.3
O=C(C[C@H]1CC[C@@H]2[C@H](COC[C@@H](O)CN2Cc2ccccc2F)O1)NCc1ccccc1F | 0.1 | 6.1
C[C@@H]1CN([C@H](C)CO)C(=O)c2c(c3ccccc3n2C)-c2ccccc2CO[C@H]1CN(C)S(=O)(=O)c1ccc(Cl)cc1 | -19.5 | -18.5
CCC(=O)NC[C@H]1[C@H](c2ccccc2)[C@@H](CO)N1C(=O)C1CC1 | 8.5 | 13.3
CS(=O)(=O)Nc1ccc2c(c1)[C@H]1C[C@@H](CC(=O)NCCc3ccccc3)O[C@H](CO)[C@H]1O2 | 0.3 | 6.2
O=C(C[C@H]1CC[C@@H]2[C@H](COC[C@@H](O)CN2S(=O)(=O)c2ccc(F)cc2)O1)NCC1CCCCC1 | -0.6 | 5.1
C[C@H](CO)N1C[C@H](C)[C@H](CN(C)Cc2ccccc2)Oc2ccc(NC(=O)C3CC3)cc2C1=O | 6.1 | 13.0
CO[C@@H]1CN(C)C(=O)c2cc(NC(=O)C3CC3)ccc2OC[C@@H](C)N(C(=O)c2ccccc2F)C[C@@H]1C | 3.2 | 2.5
CC(C)c1cn(CC[C@H]2CC[C@H](NC(=O)C3CCCCC3)[C@H](CO)O2)nn1 | 4.0 | 6.5
C[C@@H]1CCCCO[C@@H](CN(C)CC2CCCCC2)[C@@H](C)CN([C@H](C)CO)C(=O)c2cc(N(C)C)ccc2O1 | -5.0 | -5.2
C[C@@H]1CN([C@@H](C)CO)C(=O)c2cc(NS(=O)(=O)c3ccc(F)cc3)ccc2O[C@@H](C)CCCCO[C@H]1CN(C)C(=O)c1ccccc1 | -12.3 | -9.6
COc1ccc2c3c([nH]c2c1)[C@@H](CO)N(C(=O)Nc1ccc(F)cc1)CC31CCN(S(=O)(=O)c2cccc(C)c2)CC1 | ? | nt
COc1ccc2c3c(n(C)c2c1)[C@@H](CO)N(C(=O)c1ccc(F)cc1)CC31CCN(C(C)=O)CC1 | 19.6 | 9.4
O=C(c1cccc(F)c1)N1CCCCN2[C@@H](CO)[C@@H](c3ccc(-c4cncnc4)cc3)[C@@H]2C1 | 23.2 | -5.8
C[C@@H]1CN([C@H](C)CO)S(=O)(=O)c2ccc(C#CC3CC3)cc2O[C@@H]1CN(C)C(=O)Cc1ccncc1 | -11.0 | -6.5
N#C[C@@H]1[C@H](c2ccc(C3=CCCCC3)cc2)[C@H](CO)N1S(=O)(=O)c1ccccc1 | -23.0 | -16.5
CO[C@@H]1CN(C)C(=O)c2cc(NS(=O)(=O)c3ccccc3C)ccc2OC[C@@H](C)N(C)C[C@@H]1C | 2.5 | 7.4
O=C(C[C@H]1C[C@@H]2c3cc(NC(=O)Nc4ccc(C(F)(F)F)cc4)ccc3O[C@@H]2[C@@H](CO)O1)NC1CCCCC1 | -23.4 | -7.7
C[C@H]1CN([C@@H](C)CO)C(=O)c2cccc(NS(=O)(=O)c3ccc(Cl)cc3)c2O[C@@H]1CN(C)Cc1ccc(Oc2ccccc2)cc1 | -14.0 | -6.7
COc1ccccc1C#Cc1ccc2c(c1)O[C@@H](CN(C)Cc1ccccc1)[C@@H](C)CN([C@@H](C)CO)S2(=O)=O | 1.1 | 11.1
CCCN(C)C[C@@H]1OCCCC[C@H](C)Oc2ccc(NS(=O)(=O)c3ccc(C)cc3)cc2C(=O)N([C@@H](C)CO)C[C@H]1C | -18.8 | -18.0
CC(C)(O)C#Cc1ccc([C@H]2[C@H](CO)N3CCCCN(C(=O)c4ccc(F)cc4)C[C@@H]23)cc1 | 9.7 | -1.3
C[C@@H]1CCCCO[C@@H](CN(C)CC2CCCCC2)[C@H](C)CN([C@@H](C)CO)C(=O)c2cc(NS(=O)(=O)c3cn(C)cn3)ccc2O1 | 18.4 | 14.7
CN(C)CCCNC(=O)C[C@H]1CC[C@H]2[C@H](COc3ccc(NC(=O)NC4CCCC4)cc3C(=O)N2C)O1 | 11.0 | 2.5

Compound profiles, from the list above. Order of values: Vaccinia stage	Vaccinia stage Venus
CO[C@@H]1CN(C)C(=O)c2cc(NC(=O)C3CC3)ccc2OC[C@@H](C)N(C(=O)c2ccccc2F)C[C@@H]1C reads 3.2	2.5
C[C@@H]1CCCCO[C@@H](CN(C)CC2CCCCC2)[C@@H](C)CN([C@H](C)CO)C(=O)c2cc(N(C)C)ccc2O1 reads -5.0	-5.2
CC(C)(O)C#Cc1ccc([C@H]2[C@H](CO)N3CCCCN(C(=O)c4ccc(F)cc4)C[C@@H]23)cc1 reads 9.7	-1.3
COc1ccccc1C#Cc1ccc2c(c1)O[C@@H](CN(C)Cc1ccccc1)[C@@H](C)CN([C@@H](C)CO)S2(=O)=O reads 1.1	11.1
O=C(C[C@H]1CC[C@@H]2[C@H](COC[C@@H](O)CN2Cc2ccccc2F)O1)NCc1ccccc1F reads 0.1	6.1

Not all compounds are listed; rates above refer to the full screens.
